Bioassay records from PubChem.
E coli growth: E. coli growth inhibition, primary screen, OD600; Escherichia coli growth, 23 h; active compounds read low; OD600 absorbance (test concentration not listed); AID 1053175, 2014; hit rate 0.21% among 330,000;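 active means OD600 absorbance below the run mean of sample wells minus 3.6 SD, in any replicate, cut at about 0.56 in these data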;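 further: stock transfer was 300 nL into about 60 µL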
AF4-AF9 inh: inhibitors of AF4 peptide binding to AF9, primary screen, biochemical, AlphaScreen, biotin-AF4 peptide, FLAG-AF9, single point | inhibition, % at 10 µM | hit rate 0.47% among 350,000 | AID 651704, 2012;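 active means every replicate reaching a set inhibition limit, whatever the replicate mean, cut at about 25% in these data; inconclusive means mean inhibition reaches that limit but some replicates miss it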;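 further: 0% = plate neutral control median and 100% = total signal loss; the record names both 10 and 1 µM as test concentration; the first replicate is given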
Target sequence (P42568 whole entry, looked up): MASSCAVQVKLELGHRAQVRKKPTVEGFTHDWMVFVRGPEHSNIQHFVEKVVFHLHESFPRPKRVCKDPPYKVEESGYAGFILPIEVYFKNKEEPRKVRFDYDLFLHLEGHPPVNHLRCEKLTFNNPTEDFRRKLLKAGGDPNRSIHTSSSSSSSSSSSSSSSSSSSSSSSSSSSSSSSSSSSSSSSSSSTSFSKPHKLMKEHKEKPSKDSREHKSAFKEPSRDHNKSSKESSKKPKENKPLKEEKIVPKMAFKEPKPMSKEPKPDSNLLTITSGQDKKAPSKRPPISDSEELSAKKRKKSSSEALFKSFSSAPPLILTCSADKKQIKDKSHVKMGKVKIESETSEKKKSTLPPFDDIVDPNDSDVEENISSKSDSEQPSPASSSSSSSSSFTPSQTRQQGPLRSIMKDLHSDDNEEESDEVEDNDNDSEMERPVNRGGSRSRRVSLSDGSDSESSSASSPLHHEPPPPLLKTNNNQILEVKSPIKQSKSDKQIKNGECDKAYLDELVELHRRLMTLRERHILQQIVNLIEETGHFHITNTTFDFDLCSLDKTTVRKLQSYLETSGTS
RanGTP-Impb inh: inhibitors of RanGTP-importin-beta interaction, primary screen, biochemical, FRET, CFP-Ran, YFP-importin-beta, homogeneous; Ran GTPase (GTP-bound) - importin-beta complex; cell-free CFP-Ran/YFP-importin-beta FRET ratio; inhibition, % (no concentration beside the values); hit rate 1.1% among 300,000;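 active means most replicates above 15%; inconclusive means exactly half above 15%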;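 further: 0% = DMSO wells and 100% = Ran loaded with GDP instead of GTP; wells of about 40 µL received 100 nL stock; the first replicate is given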
HNF4A DNA FP: change in binding of human HNF4A to DNA, primary screen, biochemical, fluorescence polarization, FITC-DNA; Hepatocyte nuclear factor 4-alpha (Homo sapiens), P41235; 1 h; activity change, % at 10 µM; hit rate 0.3% among 360,000; AID 1224865, 2016; in the data active means activity change above about 30%, passing the limit was not always enough;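 further: controls were the assay level and a saturating level of protein; the project sought stronger binding though the title names inhibitors; some compounds called inactive have numbers as strong as hits; positive values seem to mean higher polarization but the record does not say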
UCH37 inh: inhibitors of human UCH37 deubiquitinase, primary screen, biochemical, Ub-AMC cleavage, fluorescence. inhibition, % (test concentration not listed). AID 588478, 2011. purified proteasome/UCH37. Ubiquitin carboxyl-terminal hydrolase isozyme L5 (Homo sapiens), Q9Y5K5. hit rate 0.33% among 330,000;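 active means mean of two replicates above 20%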;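 further: 0% = compound-free wells with enzyme and 100% = wells lacking proteasome; stock transfer was 100 nL into about 20 µL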
Target sequence (Q9Y5K5 whole entry, looked up): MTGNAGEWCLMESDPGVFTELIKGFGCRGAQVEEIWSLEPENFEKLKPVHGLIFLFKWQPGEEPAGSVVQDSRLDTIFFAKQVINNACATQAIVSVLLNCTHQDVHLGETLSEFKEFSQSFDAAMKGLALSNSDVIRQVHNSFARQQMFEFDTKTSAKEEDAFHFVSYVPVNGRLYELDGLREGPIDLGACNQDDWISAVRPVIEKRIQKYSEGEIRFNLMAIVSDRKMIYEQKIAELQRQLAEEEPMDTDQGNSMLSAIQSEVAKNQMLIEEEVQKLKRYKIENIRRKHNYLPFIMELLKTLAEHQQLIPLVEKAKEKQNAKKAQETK
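system = Proteasome-associated human UCH37 deubiquitinase | amount = 0.15 nM proteasome as dispensed | medium = pH 7.4 Tris-HCl (50 mM) with ovalbumin, ATP-MgCl2, DTT | incubation = 30 min preincubation with enzyme, 25 min cleavage at room temperature | detection = AMC fluorescence 355/460 nm | read-out basis = percent inhibition | controls = no-proteasome and no-compound wells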
Vif A3G: inhibitors of Vif binding to APOBEC3G peptide, primary screen, biochemical, TR-FRET, GST-Vif 1-94, biotin-A3G peptide, dose response retest (AID 1117319). inhibition, %; hits with a dose series show IC50 in µM. hit rate 0.57% among 260,000. TR-FRET GST-Vif / biotin-A3G peptide binding; higher % means a stronger effect; test concentration not given here; strong numbers were not always called active. Virion infectivity factor (Human immunodeficiency virus type 1 group M subtype B (isolate …;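 active means above the screen mean plus three standard deviations and confirmed in dose response; inconclusive means results disagree or hit not tested in dose response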;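 further: Vif residues 1-94 fused to GST binding biotinylated APOBEC3G peptide 110-148; 0% = full assay without inhibitor and 100% = GST in place of GST-Vif; retest series ran down from 100 µM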
FGF22 binding: binders of human FGF22 protein, primary screen, FGF22 synaptogenesis inhibitor project, biophysical, thermal shift, single point. recombinant FGF22 thermal shift, SYPRO orange fluorescence; percent of sucrose octasulfate shift, DMSO zero. calls only at 9.99 µM. Fibroblast growth factor 22 (Homo sapiens), Q9HCT0. hit rate 1.5% among 340,000;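 active means melting point raised past a set limit in the mean and every replicate; inconclusive means no clear call; three in four hits are not shown here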
Target sequence (Q9HCT0 whole entry, looked up): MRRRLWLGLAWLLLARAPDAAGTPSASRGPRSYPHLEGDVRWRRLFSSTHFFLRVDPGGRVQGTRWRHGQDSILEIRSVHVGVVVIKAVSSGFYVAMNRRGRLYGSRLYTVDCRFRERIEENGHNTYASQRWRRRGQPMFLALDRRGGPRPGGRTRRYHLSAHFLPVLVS
* marks the source's active call; other numbers are inactive results; i = inactive; ? = inconclusive; . = not tested or not shown; & = joins results of further samples. The list is partial; count on the stated rates, not on these rows.

SMILES	E coli growth	AF4-AF9 inh	RanGTP-Impb inh	HNF4A DNA FP	UCH37 inh	Vif A3G	FGF22 binding
CN(C)c1cccc(C(=O)NCc2ccc3c(c2)OCO3)c1	0.671	1.8	2.1	-1.1	-17.4	.	i
O=[N+]([O-])c1ccc(Oc2c(F)c(F)nc(N3CCCC3)c2F)cc1	0.73	.	0.4	-1.5	-0.4	22.9%	.
CC(C(=O)OCC(=O)Nc1ncc(Cl)cc1Cl)N1C(=O)c2ccccc2C1=O (stereo unspecified)	0.708	.	.	1.5	1.1	-10.8%	.
CCN(CC(=O)NCc1cccs1)C(=O)c1cccc(S(=O)(=O)NCc2ccccc2)c1	.	-10.1	2.6	0.7	.	.	i
O=C(c1ccc(Br)o1)N1CCN(CCOc2ccccc2)CC1	0.695	-0.9	-2.1	8.8	-1.2	.	i
COc1ccc(/C(O)=C2/C(=O)C(=O)N(CCCN(C)C)C2c2ccc(C)o2)cc1Cl (stereo unspecified)	0.67	.	2.0	.	5.2	11.0%	.
CC(C)c1ccc(N(CC(=O)NC2CCCC2)C(=O)CCC(=O)Nc2ccccn2)cc1	0.655	-1.3	1.8	-0.6	7.0	7.6%	i
O=C(NCC1CCCO1)c1cc2c([nH]c3ccccc32)c(-c2ccc(F)cc2)n1 (stereo unspecified)	0.73	1.6	-5.3	-2.1	-10.1	.	i
O=C(c1ccncc1)N(Cc1ccccc1)Cc1nc2ccccc2c(=O)[nH]1	0.706	.	-1.3	1.3	4.8	0.0%	.
N#Cc1ccc(N)cc1OCCCN1CCCCC1	0.663	5.9	.	-1.3	1.1	-11.8%	i
Cc1cc(C)cc(C(=O)Nc2ccc3[nH]c(=O)[nH]c3c2)c1	0.7	-3.6	0.1	0.8	-2.5	-3.3%	i
Cc1ccccc1CNC(=O)CCC(=O)N1Cc2ccccc2Oc2ncccc21	0.716	-0.1	-0.2	3.8	6.0	-1.3%	i
CCOC(=O)c1ccccc1NC(=O)COC(=O)c1ccc(C)c(S(=O)(=O)N2CCOCC2)c1	0.7	.	?	0.9	3.9	-4.8%	.
CC(Cc1ccccc1)N/C=C1/CC(=O)NC1=O (stereo unspecified)	0.723	.	-3.8	1.8	2.6	-4.7%	.
CCn1c2ccccc2c2nnc(SCC(=O)N3CC(C)OC(C)C3)nc21 (stereo unspecified)	0.713	.	-1.2	0.6	10.0	0.0%	.
COCCN(C(=O)Cn1nnc2ccccc21)C(C(=O)NC1CCCC1)c1cccc(OC)c1OC (stereo unspecified)	0.748	.	-0.9	1.6	-1.4	6.8%&-4.8%	.
COC(=O)C(Cc1ccccc1)NC(=O)CNC(=O)c1ccc(Br)cc1 (stereo unspecified)	0.695	-4.9	0.6	3.0	2.5	5.8%	i
O=C(c1ccc(CS(=O)Cc2ccc(Cl)cc2)o1)N1CCN(c2ccc(F)cc2)CC1 (stereo unspecified)	0.677	-1.1	0.7	1.8	1.5	.	i
C=C1CCN([C@@H](Cc2ccccc2)C(=O)NCCC(C)C)S(=O)(=O)c2ccccc21	.	-0.7	-3.6	2.3	0.3	.	i
O=C(N/N=C\c1cccc(Cl)c1)c1ccc(Cn2cc(Br)c([N+](=O)[O-])n2)o1	.	.	1.8	1.4	.	-0.6%	.
COc1ccc(C=C2SC(=S)N(CCCN3CCOCC3)C2=O)c(OC)c1	.	3.1	.	9.0	.	-2.5%	i
CCSc1nc(=S)n(-c2ccccc2)c(C)c1C(C)=O	0.705	.	-0.7	-3.4	2.1	-0.4%	.
Cc1ccc(Cl)cc1NC(=O)c1ccccc1OCC(=O)N1CCOCC1	0.674	3.8	4.1	1.6	2.3	4.8%	.
Cc1ccc(-n2nc(-c3ccco3)cc2C(=O)O)c(C)c1	0.714	-1.2	4.1	-46.1	-11.0	.	i
Cc1cccc(Oc2ccc(NC(=O)C3CC=CCC3C(=O)O)cc2)c1 (stereo unspecified)	0.709	-1.2	1.0	0.8	-0.5	30.1%	i
Cc1cc(C)c(C(=O)C(C)OC(=O)c2ccc(Cl)nc2)cc1C (stereo unspecified)	0.697	-5.5	-0.9	-1.9	-0.7	.	i
COC(=O)c1cc(Cc2ccc(N)c(C(=O)OC)c2)ccc1N	0.72	.	-0.8	0.9	-358.1	3.8%	.
COc1ccc(C)cc1S(=O)(=O)N1CCN(C(=O)c2ncoc2-c2ccccc2F)CC1	0.668	1.4	1.3	-0.3	0.5	.	i
CCn1c2ccccc2c2nnc(NN)nc21	0.718	.	-5.5	1.1	8.2	11.6%	.
CCC(=O)N1CCC1(C)C(=O)Nc1ccc2c(c1)CCN2C(C)=O (stereo unspecified)	.	0.2	.	-3.8	.	.	i
CC1=C(c2ccc(C(C)C)cc2)S(=O)(=O)N=C1N1CCN(C(=O)c2ccco2)CC1	0.696	1.2	0.4	-2.2	4.6	.	i
N/C(=N\N=C\c1ccc(Br)o1)c1nonc1N	.	2.3	0.1	24.2	.	4.6%	i
O=C(O)/C=C/C(=O)NCC1CCC(CNC(=O)/C=C/C(=O)O)CC1 (stereo unspecified)	0.719	-2.7	-2.8	-0.3	5.4	4.2%	i
O=C(c1ccc([N+](=O)[O-])cc1)n1nc(-c2ccccc2)nc1NCc1ccc(F)cc1	0.714	-3.8	1.7	-2.8	3.8	.	i
CN1C(=O)N(C)C(NC(=O)Nc2ccccc2)C1NC(=O)Nc1ccccc1 (stereo unspecified)	0.758	.	-1.6	-0.5	3.2	6.2%	.
CC1Cc2ccccc2N1C(=S)NC(=O)C1(C)CC1(Cl)Cl (stereo unspecified)	0.703	-1.4	-0.8	-3.5	2.8	?	i
O=C(NCC1CCCO1)C1CCN(C2CCN(CCCC3CCCC3)CC2)CC1 (stereo unspecified)	0.693	-4.8	-0.1	2.1	1.1	9.1%	i
CCN(CC)CC(=O)Nc1cccc2c1C(=O)c1ccccc1C2=O	0.717	.	-8.0	0.7	1.0	6.1%	.
COc1ccccc1CNC(=O)CNC(=O)[C@@H]1Cc2ccccc2CN1	0.732	2.5	1.2	3.6	3.5	-1.3%	i
CCN1CCN(c2nc(N)c([N+](=O)[O-])c(Nc3cccc(C)c3)n2)CC1	0.616	?	-1.2	-5.9	12.0	2.4%	i

Molecules from the list above that have an aryl methoxy group, in the order listed:
SMILES	E coli growth	AF4-AF9 inh	RanGTP-Impb inh	HNF4A DNA FP	UCH37 inh	Vif A3G	FGF22 binding
COc1ccc(/C(O)=C2/C(=O)C(=O)N(CCCN(C)C)C2c2ccc(C)o2)cc1Cl (stereo unspecified)	0.67	.	2.0	.	5.2	11.0%	.
COCCN(C(=O)Cn1nnc2ccccc21)C(C(=O)NC1CCCC1)c1cccc(OC)c1OC (stereo unspecified)	0.748	.	-0.9	1.6	-1.4	6.8%&-4.8%	.
COc1ccc(C=C2SC(=S)N(CCCN3CCOCC3)C2=O)c(OC)c1	.	3.1	.	9.0	.	-2.5%	i
COc1ccc(C)cc1S(=O)(=O)N1CCN(C(=O)c2ncoc2-c2ccccc2F)CC1	0.668	1.4	1.3	-0.3	0.5	.	i
COc1ccccc1CNC(=O)CNC(=O)[C@@H]1Cc2ccccc2CN1	0.732	2.5	1.2	3.6	3.5	-1.3%	i

Following part:
SMILES	E coli growth	AF4-AF9 inh	RanGTP-Impb inh	HNF4A DNA FP	UCH37 inh	Vif A3G	FGF22 binding
CCC(CC)C(=O)N=C1SC2CS(=O)(=O)CC2N1CCc1ccc(OC)c(OC)c1 (stereo unspecified)	0.618	-0.9	8.6	-3.0	1.8	22.2%	i
COc1ccccc1C(=O)N(Cc1ccc(Cl)cc1)C1CCS(=O)(=O)C1 (stereo unspecified)	0.692	-7.7	6.9	2.3	6.7	.	i
Cc1cc(C(=O)N2CCN(c3ncccn3)CC2)cs1	0.676	.	-0.2	3.8	5.3	1.9%	.
Cc1ccc2oc(=O)n(Cc3ccccc3OC(C)C)c2c1	0.682	.	-10.1	-2.6	5.5	0.8%	.
C/C(=N\NC(=O)c1c(Cl)cnn1C)c1ccc(NC(=O)c2ccc(Br)o2)cc1	.	0.0	-2.9	4.7	.	.	i
Cc1ccc(Cl)cc1NC(=O)COC(=O)c1ccc(CN2CCCC2=O)cc1	0.716	-3.2	.	1.9	1.1	-8.6%	i
COc1ccc(CNC(=O)[C@H](Cc2ccccc2)NC(=O)C2CCN(C(=O)[C@H](C)N)CC2)cc1	0.73	-1.7	?	0.5	3.0	.	i
COc1ccccc1CN(C)C(=O)c1cc(C)nc2ccccc12	0.663	-2.5	-1.9	5.0	-0.1	.	i
O=C(NCCC1=CCCCC1)C1CCC(CNS(=O)(=O)c2ccccc2)CC1 (stereo unspecified)	0.721	.	4.6	0.2	-1.0	.	.
CCc1ccc(NC(=O)C2CCCCC2C(=O)O)cc1 (stereo unspecified)	0.647	.	-0.1	3.0	0.6	6.2%	.
CC(=O)c1c(N2CCN(Cc3ccccc3)CC2)nc(=S)n(Cc2ccccc2)c1C	0.678	.	68.3*	7.6	0.3	.	.
COC(=O)c1ccc(COC(=O)CNC(=O)c2cccs2)cc1	0.675	-1.7	7.6	-1.5	-0.4	3.8%	i
CN1CCC(N(C)S(=O)(=O)c2ccc(NC(=O)c3ccc(S(=O)(=O)N(C)C)cc3)cc2)CC1	0.647	1.0	.	6.0	1.7	-0.8%	i
COC(=O)CCN(C(C)=O)c1ccc(N)cc1	0.729	.	-0.9	-3.6	4.2	4.4%	.
CCOc1cccc(C(=O)Nc2cc(C)ccc2NC(=O)c2ccco2)c1	0.7	1.6	1.9	2.3	2.6	4.6%	i
O=C(Cn1c(=O)n(Cc2ccco2)c(=O)c2ccccc21)Nc1cccc(Cl)c1	0.754	8.5	2.6	2.1	5.5	0.9%	i
Cc1cccc(CN2CCN(C(=O)CCl)CC2)c1	0.62	.	0.4	1.0	3.7	6.8%	.
O=C(OCC(=O)N(CCc1ccccc1)Cc1ccccc1)c1ccccc1[N+](=O)[O-]	0.694	1.4	0.7	2.3	0.8	-8.0%	i
O=C(C1CCCN(S(=O)(=O)c2cc(Cl)ccc2Cl)C1)N1CCCCCC1 (stereo unspecified)	0.723	0.2	?	3.1	4.3	.	i
CC(=O)c1ccc(NS(=O)(=O)c2cc(-c3cnc(C4CC4)o3)ccc2C)cc1	0.735	-0.3	0.2	7.5	2.4	.	i
Cc1cc(N2CCCC2)nc(N2C3CCC2CC(O)(c2ccc(F)cc2)C3)n1 (stereo unspecified)	0.687	.	-3.1	.	1.6	.	.
NC(c1csc(NC(=O)Nc2cccc(Cl)c2)n1)C1CCCCC1 (stereo unspecified)	.	?	.	-0.6	.	.	i
O=C(Nc1ccc(OC(F)F)cc1)c1ncc(Cl)c(Cl)c1Cl	0.661	-2.8	0.3	2.3	2.2	1.6%	i
COc1cccc(CNC(=O)C2CCN(S(=O)(=O)N3CC(C)CC(C)C3)CC2)c1 (stereo unspecified)	0.703	.	-5.2	0.2	4.4	-1.6%	.
CCc1nnc(SCC(=O)N2CCc3ccccc32)n1CC	0.695	-3.9	3.6	7.2	-0.3	-4.8%	i
CC(C)(C)c1ccc(OCC(=O)NNC(=O)CCc2ccccc2)cc1	0.643	.	?	-1.0	-2.2	4.8%	.
CC(NC(=O)Nc1nccs1)(C(F)(F)F)C(F)(F)F	0.674	.	7.7	-2.9	-1.9	-0.4%	.
